CRE Fsk mod: modulators of forskolin-stimulated CRE signaling in CHO cells; Potency, µM (highest dose often 38.2 µM), for the others: at the highest dose activity change, negative = inhibition, usual class: activators; AID 662; hit rate 2.5% among 71,000; CHO CRE-bla reporter (cAMP response element driving beta-lactamase), forskolin EC10, beta-lactamase ratio; active means well fitted activation curve with a large enough effect in the signal ratio, with a control signal flat, not every such curve was filed as active; inconclusive means small, poorly fitted or top-dose-only effect, or effect the other way, or a change in a side signal; the % refers to the signal ratio; further: potency means the concentration at half of the fitted maximal effect; % of control where 0% means no effect
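CRE-bla CHO reporter cells treated with compound titration plus EC10 NKH 477 (water-soluble forskolin), incubated 3 h at 37 °C; CCF4 loading 2 h at room temperature, 460/530 nm emission ratio read, AC50 values derived for positive or negative modulators.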
ERK AVP block: blocks ERK signaling stimulated by vasopressin. Potency, µM (titrated, usually from 57.5 µM), for inactives: top-dose activity, negative = inhibition, usual class: inhibitors. HEK293-V1b, vasopressin-stimulated pERK AlphaScreen. hit rate 0.99% among 72,000; further: potency means the concentration at half of the fitted maximal effect; on the % scale 0 is the no-effect control and ±100 the full control effect; nearly all actives have a fitted effect of over 55% in size
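qHTS, compounds titrated on V1b-expressing HEK293 cells. Preincubation 30 min at 37C, vasopressin 25 nM for 5 min, lysis 10 min, bead incubation 5 hr at room temperature.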
BRCT PPI green: blocks human BRCA1 BRCT binding to phosphopeptide, green readout; BRCA1 BRCT-phosphopeptide binding, green fluorescence polarization; Potency, µM (highest dose often 76.9 µM), without a hit: at the top dose activity change, negative = inhibition, actives largely listed as inhibitors; hit rate 0.05% among 75,000; AID 875;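 further: potency means the concentration at half of the fitted maximal effect; plate controls were peptide without protein for full effect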
Target sequence (P38398 whole entry, looked up): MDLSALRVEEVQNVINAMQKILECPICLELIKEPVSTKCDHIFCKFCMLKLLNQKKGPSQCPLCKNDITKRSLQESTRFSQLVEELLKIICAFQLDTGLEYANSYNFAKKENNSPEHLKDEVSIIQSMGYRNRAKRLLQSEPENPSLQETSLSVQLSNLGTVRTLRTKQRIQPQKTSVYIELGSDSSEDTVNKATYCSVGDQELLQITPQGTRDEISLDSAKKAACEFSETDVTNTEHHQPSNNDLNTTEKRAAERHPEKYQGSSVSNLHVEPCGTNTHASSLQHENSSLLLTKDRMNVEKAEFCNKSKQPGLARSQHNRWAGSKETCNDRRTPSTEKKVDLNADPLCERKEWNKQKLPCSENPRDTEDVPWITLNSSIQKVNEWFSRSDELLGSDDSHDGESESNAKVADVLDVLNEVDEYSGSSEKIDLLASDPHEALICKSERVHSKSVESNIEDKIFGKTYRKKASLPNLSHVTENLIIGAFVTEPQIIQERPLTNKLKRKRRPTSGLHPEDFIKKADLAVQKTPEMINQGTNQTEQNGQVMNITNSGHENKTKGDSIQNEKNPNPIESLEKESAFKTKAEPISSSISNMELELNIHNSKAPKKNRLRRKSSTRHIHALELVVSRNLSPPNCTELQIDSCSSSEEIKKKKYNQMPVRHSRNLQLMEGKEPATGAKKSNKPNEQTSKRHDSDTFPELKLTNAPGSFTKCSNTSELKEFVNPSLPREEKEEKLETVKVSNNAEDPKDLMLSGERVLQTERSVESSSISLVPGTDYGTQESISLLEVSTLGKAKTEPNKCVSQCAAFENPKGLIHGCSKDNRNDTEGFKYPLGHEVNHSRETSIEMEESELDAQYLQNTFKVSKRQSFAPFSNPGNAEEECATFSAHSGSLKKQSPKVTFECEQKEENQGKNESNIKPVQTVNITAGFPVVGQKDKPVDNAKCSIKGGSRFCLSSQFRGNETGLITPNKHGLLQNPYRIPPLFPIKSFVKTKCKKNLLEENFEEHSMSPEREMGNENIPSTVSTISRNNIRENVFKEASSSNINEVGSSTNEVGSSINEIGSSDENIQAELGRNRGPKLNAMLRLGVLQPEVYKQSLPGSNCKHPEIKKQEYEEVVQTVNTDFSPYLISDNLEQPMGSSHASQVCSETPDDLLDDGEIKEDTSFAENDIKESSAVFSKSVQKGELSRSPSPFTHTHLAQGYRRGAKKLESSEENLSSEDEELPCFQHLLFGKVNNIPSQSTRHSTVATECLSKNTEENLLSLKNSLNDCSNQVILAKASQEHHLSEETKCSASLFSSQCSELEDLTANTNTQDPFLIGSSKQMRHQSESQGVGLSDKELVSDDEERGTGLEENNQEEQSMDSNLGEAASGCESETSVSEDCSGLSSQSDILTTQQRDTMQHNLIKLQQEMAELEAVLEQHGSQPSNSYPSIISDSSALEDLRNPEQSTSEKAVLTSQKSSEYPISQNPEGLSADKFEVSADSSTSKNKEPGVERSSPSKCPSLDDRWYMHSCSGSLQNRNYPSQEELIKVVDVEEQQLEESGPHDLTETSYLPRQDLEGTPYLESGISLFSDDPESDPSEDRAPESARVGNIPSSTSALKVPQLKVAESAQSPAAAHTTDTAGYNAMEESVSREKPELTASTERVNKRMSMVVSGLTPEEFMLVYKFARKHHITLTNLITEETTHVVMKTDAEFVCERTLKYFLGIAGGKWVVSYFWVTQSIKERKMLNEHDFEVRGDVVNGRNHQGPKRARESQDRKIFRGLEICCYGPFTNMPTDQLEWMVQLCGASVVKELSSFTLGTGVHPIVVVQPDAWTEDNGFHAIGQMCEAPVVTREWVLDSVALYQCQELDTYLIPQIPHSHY
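Fluorescence polarization: His-tagged BRCT (~35 kDa BRCA1 C-terminus, 250 nM) bound to 100 nM fluorescein-labeled phosphorylated 10-aa BACH1 peptide, pH 7.3 phosphate buffer with DTT and Tween 20. Compounds incubated 12 min at room temperature; inhibition read as lowered polarization.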
HEK293 cAMP cs: parental HEK293 cAMP activation (counter-screen) | hit rate 2.5% among 73,000 | parental HEK293 CNG cAMP sensor, membrane potential fluorescence | Potency, µM (highest dose often 57.1 µM), for the others: at the highest dose activation, hits mostly activators | AID 938; further: potency means the concentration at half of the fitted maximal effect; % of control where 0% means no effect; nearly all actives have a fitted effect of over 55% in size
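Parental HEK 293 cells stably expressing a modified CNG channel (no TSHR) report cAMP rise as membrane depolarization. Membrane potential dye with 100 uM RO 20-1724 was loaded for 60 min at room temperature, then compound added for 30 min; fluorescence read at 590 nm.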
BRCT PPI red: BRCT-phosphoprotein interaction inhibition (red fluorophore); P38398; BRCT-phosphopeptide binding, red fluorescence polarization; Potency, µM (titrated, usually from 76.9 µM), without a hit: top-dose activity change, negative = inhibition, hits mostly inhibitors; hit rate 0.03% among 75,000; AID 892; further: on the % scale 0 is the no-effect control and ±100 the full control effect
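Fluorescence polarization: 100 nM His-tagged BRCA1 BRCT with 100 nM TAMRA-labelled phospho-BACH1 decapeptide, phosphate buffer pH 7.3 with 150 mM NaCl, DTT, 0.01% Tween 20; 12 min RT. Binding inhibition seen as FP decrease.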
USP2a inh: USP2a (human) protease inhibition; O75604; USP2a enzymatic assay, qHTS inhibition; Potency, µM (highest dose often 38.3 µM), for inactives: at the top dose activity change, negative = inhibition, hits mostly inhibitors; hit rate 0.1% among 60,000;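 further: potency means the concentration at half of the fitted maximal effect; nearly all actives have a fitted effect of over 60% in size; plate controls were DMSO for no effect and NEM full inhibition control for full effect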
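Inhibition is measured in a cell-free coupled assay with 20 nM USP2 core, 20 nM Ub-PLA2 and 20 uM NBD C6-HPC, 2.5 h incubation. Activity normalized to NEM control.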
* hit, by the source's call; u = inconclusive; x = no result given; [ ] = another dose, or the depositor's remark. Unless noted, the call rests on the fitted dose curve; in most records, active means well fitted curve in the direction sought with a large enough effect; inconclusive means small, poorly fitted or top-dose-only effect, or another doubt; inactive means no such curve, though single readings can be large; an effect the other way counts as inactive or inconclusive.

item | SMILES | CRE Fsk mod | ERK AVP block | BRCT PPI green
1 | Cc1cccc(C)c1OCC(C)N (stereo not given) | x | 20% | 1.7%
2 | Cc1c(C)c2c(c(C)c1O)CCC(C)(CCCC(C)CCCC(C)CCCC(C)C)O2 (stereo not given) | x | 10% | -0.9%[3.08 µM]
3 | C=C1c2c(Cl)ccc(O)c2C(O)=C2C(=O)[C@]3(O)C(O)=C(C(N)=O)C(=O)C(N(C)C)C3C(O)C12 (stereo not given in full) | x | -3% | -0.8%[3.08 µM]
4 | CN1[C@@H]2CC[C@H]1CC(OC(c1ccccc1)c1ccccc1)C2 (stereo not given in full) | u | -6%[11.5 µM] | -2.7%[15.4 µM]
5 | CCOc1ccc2nc(N3CCCN(C(=O)Nc4ccccc4C)CC3)c(C#N)cc2c1 | 5% | 46%[activator] | -18%
6 | Nc1ccccc1O | u | -4% | -1.1%
7 | CC1=C(CC(=O)O)c2cc(F)ccc2/C1=C\c1ccc(S(C)=O)cc1 (stereo not given) | u | u | -1.5%
8 | CO[C@H]1/C=C/O[C@@]2(C)Oc3c(C)c(O)c4c(O)c(c(/C=N/N5CCN(C)CC5)c(O)c4c3C2=O)NC(=O)/C(C)=C\C=C\[C@H](C)[C@H](O)[C@@H](C)[C@@H](O)[C@@H](C)[C@H](OC(C)=O)[C@@H]1C | -19% | 0% | 8.6%
9 | CC(C)(C)c1ccc([C@@H](O)CCCN2CCC(C(O)(c3ccccc3)c3ccccc3)CC2)cc1 | u | 10%[25.7 µM] | -1.1%[34.4 µM]
10 | O=C(O)[C@@H]1CCCN1 | 2%[7.6 µM] | 25%[11.5 µM] | 0.4%[15.4 µM]

item | HEK293 cAMP cs | BRCT PPI red | USP2a inh
1 | x | 0.6% | -11%
2 | x | 0.1% | -29%
3 | x | -11% | -98%
4 | 11%[11.4 µM] | -0.2%[15.4 µM] | 3%
5 | 21% | 0.2% | 28%
6 | -40%[inhibitor] | -1.5% | x
7 | -6% | 2.7% | -13%
8 | -68%[inhibitor] | 2.1% | x
9 | 6%[25.6 µM] | -1.0%[34.4 µM] | 36%[activator][17.1 µM]
10 | -1%[11.4 µM] | 0.4%[15.4 µM] | x

Next section
item | SMILES | CRE Fsk mod | ERK AVP block | BRCT PPI green
11 | CCN(CC)CC#CCOC(=O)[C@@](O)(c1ccccc1)C1CCCCC1 | 0%[17.1 µM] | 12%[25.7 µM] | 1.3%[34.4 µM]
12 | NNC(=O)c1ccncc1 | 10% | -9% | -3.0%[3.08 µM]
13 | CC(C)OC(=O)C(C)(C)Oc1ccc(C(=O)c2ccc(Cl)cc2)cc1 | 3%[17.1 µM] | 86%[activator] | -1.6%
14 | COc1ccc2cc([C@H](C)C(=O)O)ccc2c1 | -5%[17.1 µM] | 8%[25.7 µM] | 0.7%[34.4 µM]
15 | CN1Cc2c(N)cccc2C(c2ccccc2)C1 (stereo not given) | x | 26% | -3.3%[3.08 µM]
16 | Cc1cccc(CNc2ccnc(-c3ccc(N(C)C)cc3)n2)c1 | u | u | -0.5%
17 | CC(C)(C)c1ccc(C(O)CCCN2CCC(C(O)(c3ccccc3)c3ccccc3)CC2)cc1 (stereo not given) | x | 21% | -1.7%
18 | Nc1c(C(=O)NCc2ccc3c(c2)OCO3)c2nc3ccccc3nc2n1CCCN1CCOCC1 | 13µM* | -2% | -2.8%
19 | O=C(O)/C=C/C(=O)O | -11% | 15% | -2.3%
20 | C#C[C@]1(O)CC[C@H]2[C@H]3CCC4=Cc5oncc5C[C@]4(C)[C@@H]3CC[C@]21C | u | u | -2.2%
21 | COC1=CC(=O)CC(C)C12Oc1c(Cl)c(OC)cc(OC)c1C2=O (stereo not given) | x | 9% | 0.2%
22 | Nc1cccc(O)c1 | -7% | 9% | -0.2%
23 | NC1CONC1=O (stereo not given) | x | 8% | 0.3%[3.08 µM]

item | HEK293 cAMP cs | BRCT PPI red | USP2a inh
11 | 18%[25.6 µM] | -0.1%[34.4 µM] | 6%[17.1 µM]
12 | 18% | -1.6% | -7%
13 | u | 1.9% | u
14 | u | 0.4%[34.4 µM] | 20%[17.1 µM]
15 | x | -2.3% | -6%
16 | 0% | -0.5% | u
17 | x | 2.5% | 17%
18 | u | -0.5% | 40%[activator]
19 | -10% | 2.1% | x
20 | 9% | -0.9% | 20%
21 | x | 0.4% | x
22 | 8% | 0.8% | x
23 | x | 0.7% | -5%

By substructure: the compounds so far containing nitrogen in an aromatic ring
item | SMILES | CRE Fsk mod | ERK AVP block | BRCT PPI green
5 | CCOc1ccc2nc(N3CCCN(C(=O)Nc4ccccc4C)CC3)c(C#N)cc2c1 | 5% | 46%[activator] | -18%
12 | NNC(=O)c1ccncc1 | 10% | -9% | -3.0%[3.08 µM]
16 | Cc1cccc(CNc2ccnc(-c3ccc(N(C)C)cc3)n2)c1 | u | u | -0.5%
18 | Nc1c(C(=O)NCc2ccc3c(c2)OCO3)c2nc3ccccc3nc2n1CCCN1CCOCC1 | 13µM* | -2% | -2.8%
20 | C#C[C@]1(O)CC[C@H]2[C@H]3CCC4=Cc5oncc5C[C@]4(C)[C@@H]3CC[C@]21C | u | u | -2.2%

item | HEK293 cAMP cs | BRCT PPI red | USP2a inh
5 | 21% | 0.2% | 28%
12 | 18% | -1.6% | -7%
16 | 0% | -0.5% | u
18 | u | -0.5% | 40%[activator]
20 | 9% | -0.9% | 20%

Screening results from PubChem.

Only part of the results is shown; the hit share may differ from the screen's.
